CtBP-E1A blk: inhibitors of CtBP/E1A interaction; AID 651724; AlphaScreen GST-E1A/His-CtBP binding, 1536-well; hits give low values; control for the full effect not named in the record; hit rate 0.49% among 340,000; activity change, % (test concentration not listed); in the data active means activity change below about -65%; inconclusive means about -30% to -65%; inactive means above about -30%; also: % is scaled to controls: 0 for no effect and ±100 for the full control effect; compound concentration not given in the record
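AlphaScreen with 125 nM GST-E1A and 125 nM His-CtBP (5X stocks) in Tris pH 8.0, 300 mM NaCl, BSA, Tween 20, TCEP. Compounds preincubated 2 h at 37 deg C, then glutathione donor/nickel acceptor beads added for 1 h at 37 deg C in dark.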
PINK1 modulator: PINK1 expression modulation | PINK1 immunofluorescence, high-content cytometry, 24 h | Potency, µM (highest dose often 76.6 µM), without a hit: at the highest dose activation (PINK1 increase), most hits filed as activators | hit rate 0.2% among 410,000; active = well fitted activation curve with a large enough effect; inconclusive = small, poorly fitted or top-dose-only effect; inactive = flat fitted curve, though single readings scatter; cell line not stated here;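 also: potency is read from the fitted curve at half-maximal effect; % of control where 0% means no effect; nearly all actives have a fitted effect of over 65% in size; a mitochondrial uncoupler was the plate control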
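Decision-based qHTS: stable cells, 24 h exposure to five compound concentrations, CCCP as control. Fixed cells stained for PINK1 plus nuclear, mitochondrial and cell markers, cytometer read.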
TRPML1 blocker: blocks the human TRPML1 channel; AID 624415; activity change, negative = inhibition, % (no concentration beside the values); TRPML1-inducible cells, Ca2+ dye fluorescence, FDSS; hits give low values; inhibition of EC80 agonist-evoked calcium signal; hit rate 0.02% among 390,000; Q9GZU1; in the data active means activity change below about -50%; inconclusive means about -30% to -50%; inactive means above about -30%;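 also: stimulus is agonist 54-4 at its EC80 concentration; % is scaled to controls: 0 for no effect and ±100 for the full control effect; compound concentration not given in the record; the text of the record puts the active cut at -80%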
Target sequence (Q9GZU1 whole entry, looked up): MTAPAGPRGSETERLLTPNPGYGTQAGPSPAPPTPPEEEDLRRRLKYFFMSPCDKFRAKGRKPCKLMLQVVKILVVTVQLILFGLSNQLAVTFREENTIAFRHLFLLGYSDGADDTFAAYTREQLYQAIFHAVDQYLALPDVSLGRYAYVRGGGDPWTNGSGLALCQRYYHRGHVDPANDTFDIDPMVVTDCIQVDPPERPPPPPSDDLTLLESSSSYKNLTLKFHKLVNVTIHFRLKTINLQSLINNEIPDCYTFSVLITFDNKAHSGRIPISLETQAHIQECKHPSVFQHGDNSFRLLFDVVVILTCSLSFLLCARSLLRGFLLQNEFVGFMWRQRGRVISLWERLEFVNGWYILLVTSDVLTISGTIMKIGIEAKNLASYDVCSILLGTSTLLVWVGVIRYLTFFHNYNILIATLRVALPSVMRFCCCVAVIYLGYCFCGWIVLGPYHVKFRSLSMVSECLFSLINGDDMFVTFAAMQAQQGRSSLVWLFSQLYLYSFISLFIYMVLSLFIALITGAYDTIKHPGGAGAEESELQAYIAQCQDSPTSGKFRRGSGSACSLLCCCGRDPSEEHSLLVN
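TRPML1-DL cells, Tet-induced overnight (~16 h, 37 °C) at 1,500 cells/well, were loaded with Ca8 no-wash dye plus quencher for 45-90 min at room temperature. Compounds were pinned during FDSS kinetic reading; agonist 54-4 at EC80 (4 uM final) then added.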
TRPML1 agonist: human mucolipin-1 channel agonism | TRPML1-expressing cells, Ca2+ dye fluorescence, FDSS; host cell line not named in the record; reference of the full effect not given here | activation, % (test concentration not listed) | hit rate 0.12% among 410,000; in the data active = activation above about 50%; inconclusive = about 30% to 50%; inactive = below about 30%; also: 0% is about no effect; the text of the record puts the active cut at 80%
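Tetracycline-induced TRPML1-DL cells are seeded and incubated overnight before loading with a no-wash Ca2+ dye and quencher. Agonist activity is taken from the 110 s fluorescence read following compound pin-transfer on an FDSS, before EC80 54-4 challenge.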
D2 agonist: human D2 receptor agonism in beta-arrestin assay. hit rate 0.084% among 360,000. activation, % (no concentration beside the values). DiscoveRx PathHunter D2 beta-arrestin, luminescence, 90 min; 100% = 57 uM dopamine signal. P14416. AID 624465; in the data active = activation above about 40%; inconclusive = about 15% to 40%; inactive = below about 15%; also: compound concentration not given in the record; the text of the record calls up to 30% inactive
Target sequence (P14416 whole entry, looked up): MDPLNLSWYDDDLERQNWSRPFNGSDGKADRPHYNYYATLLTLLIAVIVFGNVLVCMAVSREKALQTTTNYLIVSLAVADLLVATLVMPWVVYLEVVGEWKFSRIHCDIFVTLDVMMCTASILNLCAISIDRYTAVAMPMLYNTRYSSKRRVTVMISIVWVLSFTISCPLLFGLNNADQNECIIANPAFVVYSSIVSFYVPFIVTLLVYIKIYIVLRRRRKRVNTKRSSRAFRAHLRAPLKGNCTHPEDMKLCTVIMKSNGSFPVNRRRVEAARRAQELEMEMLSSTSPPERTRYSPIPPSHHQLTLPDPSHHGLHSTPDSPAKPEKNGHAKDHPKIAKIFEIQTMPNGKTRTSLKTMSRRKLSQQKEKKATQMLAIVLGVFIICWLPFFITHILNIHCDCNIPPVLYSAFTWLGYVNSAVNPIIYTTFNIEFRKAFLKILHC
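DiscoveRx PathHunter D2 beta-arrestin cells (2,100/well) attached overnight, then compound-stimulated 90 min at 37 C in HBSS/10 mM HEPES/0.1% Tween-20 buffer; beta-galactosidase complementation read by luminescence after 1 h at ambient temperature. Dopamine 57 uM final (EC100) as control.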
Six1-Eya2 blk: inhibitors of human Six1/Eya2 interaction; AID 651725; hit rate 0.56% among 360,000; activity change, % (no concentration beside the values); AlphaScreen GST-Six1/His-Eya2 binding, biochemical; hits give low values; control for the full effect not named in the record; in the data active = activity change below about -65%; inconclusive = about -30% to -65%; inactive = above about -30%; also: % is scaled to controls: 0 for no effect and ±100 for the full control effect; compound concentration not given in the record
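AlphaScreen luminescence read after one hour at 37 °C in darkness. Pin-transferred compounds met GST-Six1 and His-Eya2 protein (5X stock 250 nM/500 nM) plus glutathione donor and Ni-chelate acceptor beads (5X, 50 ug/mL).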
* hit, by the source's call; ? = inconclusive; . = no result given; [ ] = remark or other dose.

SMILES	CtBP-E1A blk	PINK1 modulator	TRPML1 blocker	TRPML1 agonist	D2 agonist	Six1-Eya2 blk
COC(=O)C1=C(c2ccc(OC(F)(F)F)cc2)C[C@@H]2CC[C@H]1N2C(=O)NCc1cc(C)oc1C(F)(F)F	6	2.2%	-1	0.0	-7.2	1
Cc1cccc(C)c1NC1=NCCCCS1	3	-1.0%	-3	0.2	-4.4	2
Oc1cc2c(cc1CN1CCN(c3ccccc3)CC1)OCO2	-20	-0.3%	5	-0.1	.	?
CCOc1cc(/C=C2\C(=O)NC(=O)N(C)C2=O)cc([N+](=O)[O-])c1O	1	7.2%	19	0.6	-1.1	-7
Nc1c2c(nc3sc4c(c13)CCCC4)CCCC2	-7	?	7	-0.5	-1.0	-13
O=C(c1sc2ccccc2c1Cl)N1CCC2(CC1)OCCO2	7	8.6%[38.3 µM]	-1	0.2	-1.2	3
COC(=O)C1=C(c2ccc(F)cc2OCc2ccccc2)C[C@@H]2CC[C@H]1N2C(=O)NCc1ccc(C(C)(C)C)cc1	6	-0.3%	8	0.2	-1.3	0
COc1ccc(CCNCC2CCCO2)cc1 (stereo not drawn)	.	4.9%	.	.	-3.5	1
O=C(COc1cc(Cl)ccc1Cl)Nc1ccc(Cl)cc1C(=O)c1ccccc1	.	-0.2%	1	-0.3	.	.
CCN1C(=O)CC(=O)N(CC)C1=S	-2	0.5%	-7	0.6	-0.8	-4
CCN(CC)P(=O)(c1n(CC)cc[n+]1CC)N(CC)CC	5	-2.4%	4	1.5	-3.9	-3
CCC(c1nnnn1Cc1ccccc1)N1CCC2(CC1)C(=O)NCN2c1ccccc1 (stereo not drawn)	-14	-0.1%	.	-0.1	1.2	-5
COc1ccc(OC)c(N=Cc2c(O)[nH]c(=O)[nH]c2=O)c1	.	1.4%	5	2.8	-0.2	-10
COCCn1c(-c2ccccc2)cc(C(=O)O)c1C	5	-2.1%	13	-0.6	-7.4	1
Cc1ccc(N)c(C(=O)c2ccccc2)c1	-17	8.6%[38.3 µM]	2	0.8	0.0	-16
O=C1NC(=O)N(c2ccccc2)C(=O)/C1=C/c1coc2ccc(O)cc2c1=O	.	19%	20	2.8	9.4	8
CCOc1ccc(-c2cc(C)[n+](CCN3CCOCC3)c(-c3ccc(OCC)cc3)c2)cc1	5	1.3%	-3	0.4	2.0	1
CC1(O)CCN2C(=O)CCc3cccc1c32 (stereo not drawn)	1	-0.5%	3	2.1	1.7	0
Cc1ccc(CN2C(=O)c3ccccc3Sc3ccc(C(=O)N4CCC5(CC4)OCCO5)cc32)cc1	.	0.0%	17	1.0	.	.
O=c1[nH]c2ccccc2n1C1CCN(C(CCc2ccccc2)c2nnnn2Cc2ccccc2)CC1 (stereo not drawn)	-11	-0.6%	34	0.4	13	-16
CNC(=O)N(C)c1ccc(C(O)(C(=O)OC)C(F)(F)F)cc1 (stereo not drawn)	.	0.0%	13	1.2	6.9	0
CCNC(=O)NNC(=O)C1CC(c2cccnc2)=NO1 (stereo not drawn)	-1	7.6%	-12	-0.8	-4.5	3
O=P(Oc1ccccc1)(Oc1ccccc1)N1CCN(c2ccc(F)cc2)CC1	-2	29%	68	0.2	-3.5	-12
CCOC(=O)c1cccc(-[n+]2c(-c3ccccc3)cc(-c3ccccc3)cc2-c2ccccc2)c1	-4	25µM*	-3	1.1	-3.5	4
Cc1ccccc1C(O)(Cc1ccccc1)C1CN2CCC1CC2 (stereo not drawn)	-9	1.7%	33	-0.2	-2.3	-12
SMILES	CtBP-E1A blk	PINK1 modulator	TRPML1 blocker	TRPML1 agonist	D2 agonist	Six1-Eya2 blk
COc1cccc(OC)c1CN1CCCC(C(=O)c2cccc(Cl)c2)C1 (stereo not drawn)	0	3.8%	20	0.9	-1.9	-5
O=C(Nc1ccc(F)cc1F)c1cccnc1Oc1cccc(C(F)(F)F)c1	9	8.1%[38.3 µM]	33	4.1	-3.1	3
CCCCn1nnnc1C(c1ccnc2ccccc12)N1CCC2(CC1)C(=O)NCN2c1ccccc1 (stereo not drawn)	6	0.8%	.	-0.8	0.7	-1
COCCCn1c(=O)/c(=C\c2ccccc2OC(F)F)s/c1=C(/C#N)C(=O)NCCOC	8	?	-5	3.6	-1.6	-1
Clc1ccc(-c2nc3ccc(Cl)cn3c2CN2CCCCC2)cc1	6	?	-8	0.6	-5.2	3
COP(=O)(NC(C)=O)SC (stereo not drawn)	3	0.1%	30	0.4	-1.8	0
O=C(COC(=O)Cc1ccccc1)Nc1cc(S(=O)(=O)N2CCOCC2)ccc1N1CCCC1	3	1.0%	-1	-0.3	0.1	3
CCCCn1c(O)c(C=NCCCn2ccnc2)c(=O)[nH]c1=O	0	-0.8%	6	-0.1	-2.6	2
Cn1c(=O)c2c(nc(N/N=C/c3c(O)n(C4CCCCC4)c(=S)[nH]c3=O)n2C)n(C)c1=O	?	-2.1%	15	-0.4	-5.8	-81*
COC(=O)C1=C(c2cccc(OCc3ccccc3)c2)C[C@@H]2CC[C@H]1N2C(=O)NCc1ccc(OC)cc1	-3	-1.1%	1	-0.9	-3.4	-6
COc1cc2c(cc1O)C[C@H]1c3c(cc(O)c(OC)c3-2)CCN1C	-11	0.3%	-2	-0.5	-0.4	-15
COc1ccc(CCNC(=O)COC(=O)Cc2ccccc2)cc1	6	0.9%	-9	0.2	-0.4	5
C#CC[N+]1(C)[C@@H]2CC(OC(=O)C(CO)c3ccccc3)C[C@H]1C(O)C2 (stereo partly drawn)	.	1.3%	-2	-0.3	-7.7	17
CCCC[n+]1cc(=N)o[n-]1	6	0.6%	11	0.5	2.5	3
COC(=O)C1=Nc2ccccc2/C1=C\c1c(O)n(-c2cc(OC)ccc2OC)c(=O)[nH]c1=O	2	0.2%	0	0.1	2.1	-3
CC1CN=C(Nc2ccccc2)S1 (stereo not drawn)	7	.	6	0.7	-0.7	2
OC1C2CN3CN(C2)CC1(c1ccccc1)C3 (stereo not drawn)	-2	0.8%	-9	0.5	0.9	6
CN(C)CCN(C(=O)c1cc(Cl)sc1Cl)c1nc2ccc(F)cc2s1	9	?	-5	0.2	-6.0	-10
CC(=O)OC(C)(C)/C=C/C(=O)[C@](C)(O)C1[C@H](O)C[C@@]2(C)C3CC=C4C(C[C@H](O)C(=O)C4(C)C)[C@]3(C)C(=O)C[C@]12C (stereo partly drawn)	1	0.0%	-4	-0.5	-0.7	8
COc1ccc(C(c2nnnn2Cc2ccccc2)N2CCC3(CC2)C(=O)NCN3c2ccccc2)cc1 (stereo not drawn)	-12	0.1%	.	-0.3	6.2	-15
CN1CC(C(=O)c2ccccc2)C(C(=O)c2ccccc2)C1 (stereo not drawn)	-11	-3.7%	5	0.7	-1.9	-15
CN1CCCCC1Cc1ccccc1 (stereo not drawn)	7	1.1%	.	-0.4	3.2	6
CN(C)c1ccc(N=Cc2c(O)n(CCC3=CCCCC3)c(=O)[nH]c2=O)cc1	0	?	-4	-0.2	-2.6	0
CCOc1ccc(Cc2c(O)[nH]c(=O)[nH]c2=O)cc1	3	0.6%	2	-0.1	-3.9	2
Cc1ccc(Cn2cccc(C(=O)Nc3cc(C)on3)c2=O)cc1	.	2.4%	-21	-0.9	.	.

4 entries from above, as labelled records:
molecule: O=C(Nc1ccc(F)cc1F)c1cccnc1Oc1cccc(C(F)(F)F)c1
  CtBP-E1A blk: 9	PINK1 modulator: 8.1%[38.3 µM]	TRPML1 blocker: 33	TRPML1 agonist: 4.1	D2 agonist: -3.1	Six1-Eya2 blk: 3
molecule: CCCCn1nnnc1C(c1ccnc2ccccc12)N1CCC2(CC1)C(=O)NCN2c1ccccc1 (stereo not drawn)
  CtBP-E1A blk: 6	PINK1 modulator: 0.8%	TRPML1 blocker: .	TRPML1 agonist: -0.8	D2 agonist: 0.7	Six1-Eya2 blk: -1
molecule: COCCCn1c(=O)/c(=C\c2ccccc2OC(F)F)s/c1=C(/C#N)C(=O)NCCOC
  CtBP-E1A blk: 8	PINK1 modulator: ?	TRPML1 blocker: -5	TRPML1 agonist: 3.6	D2 agonist: -1.6	Six1-Eya2 blk: -1
molecule: Clc1ccc(-c2nc3ccc(Cl)cn3c2CN2CCCCC2)cc1
  CtBP-E1A blk: 6	PINK1 modulator: ?	TRPML1 blocker: -8	TRPML1 agonist: 0.6	D2 agonist: -5.2	Six1-Eya2 blk: 3

(cont.)
SMILES	CtBP-E1A blk	PINK1 modulator	TRPML1 blocker	TRPML1 agonist	D2 agonist	Six1-Eya2 blk
Cc1ccc(N)cc1N	5	0.6%	-4	0.1	-2.7	-2
C1=NCCCN2CCCCC12 (stereo not drawn)	3	0.6%	3	0.0	1.1	-2
COC(=O)C1=C(c2cccc(OC)c2OC)C[C@@H]2CC[C@H]1N2C(=O)NCc1ccco1	4	-1.1%	-13	-0.3	-0.3	3
CC(C)OC(=O)Cc1ccccc1	7	3.6%	25	1.1	4.0	4
C=CC(=O)OCCO	5	2.3%	29	-0.3	-5.2	-4
CC1=C(C(=O)N2CCC3(CC2)OCCO3)C2(CCC(C)CC2)OC1=O (stereo not drawn)	1	1.5%	4	-0.8	-5.0	-2
CCCc1nc2ccccc2c(=O)n1-c1ccc(O)cc1	-2	0.6%	6	2.7	3.8	-12
COc1ccc(CC(=O)N(C)C2CCCN(Cc3ccccc3F)C2)cc1OC (stereo not drawn)	-14	4.3%	-12	0.8	-3.4	1
COC(=O)c1c(C)n(Cc2ccccc2)c2ccc(O)cc12	0	8.6%	43	-0.8	-1.3	3
C#C[C@]1(O)CC[C@H]2[C@@H]3CCC4=Cc5nc6nc7ccccc7n6cc5C[C@]4(C)[C@H]3CC[C@@]21C	-17	6.1%	37	4.2	-2.3	0
O=C1NC(=O)N(Cc2ccccc2)C(=O)/C1=C/C=C/c1ccco1	-3	-0.3%	9	-0.2	0.3	5
CC(CC(C#N)(c1ccccc1)c1ccccc1)N(C)C (stereo not drawn)	-1	0.3%	-11	-0.3	1.7	0
COC(=O)C1=C(c2cc3ccccc3o2)C[C@@H]2CC[C@H]1N2C(=O)NC(C)C	6	0.6%	7	-0.7	-3.1	2
Cc1ccc(OC(=O)N(C)C[C@H]2OCc3cnnn3CCCC(=O)N([C@H](C)CO)C[C@@H]2C)cc1	-3	-1.4%	23	1.5	-1.1	11
O=C1NC(=O)C(=Cc2c(Cl)cccc2Cl)C(=O)N1	7	8.4%	-9	-0.4	-0.4	0
COc1ccc(CC2c3cc(OC)c(OC)cc3CCN2C)cc1OC (stereo not drawn)	0	1.3%	0	-0.5	6.1	-1
CC[C@H](C)/C=C(C)/C=C/C1=CC2=C(Cl)C(=O)[C@](C)(OC(C)=O)C(=O)C2=CO1	3	3.2%	.	.	2.3	-11
CC(C)(O)C1C2OC(=O)C1C1(O)CC3OC34C(=O)OC2C14C (stereo not drawn)	9	1.2%	-4	0.7	3.2	5
O=[N+]([O-])c1ccc(N2CCNCC2)cc1N1CCCCC1	.	0.0%	-18	-0.2	3.9	-1
Cc1ccc(-n2c(O)c(/C=N/N3CCOCC3)c(=O)[nH]c2=S)cc1	-14	-1.2%	2	0.5	0.7	3
COc1cc(CN2CCNCC2)cc(OC)c1OC	1	4.3%	6	0.8	-1.1	2
O=C(Cc1cc(=O)[nH]c(=O)[nH]1)N1CCN(CCO)CC1	5	3.0%	-1	0.7	-4.1	1

Screens from PubChem.

Some of the compounds tested, so the mix of outcomes need not match the whole.
